Source: PubChem
Rce1 inhib: yeast Ras-converting enzyme inhibition | Q03530 | yeast membranes, quenched prenylated peptide cleavage fluorescence | calls only | actives 0.27% (n = 290,000) | AID 2563;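 active = fall in fluorescence gain of 50% or more versus controls, with final raw signal at or below 3038400; inconclusive = same 50% fall but final raw signal above 3038400; inactive = fall in fluorescence gain under 50%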;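 note: plate controls were neutral control wells for no effect and wells lacking membranes for full effect; tested at 10 µM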
Target sequence (Q03530 whole entry, looked up): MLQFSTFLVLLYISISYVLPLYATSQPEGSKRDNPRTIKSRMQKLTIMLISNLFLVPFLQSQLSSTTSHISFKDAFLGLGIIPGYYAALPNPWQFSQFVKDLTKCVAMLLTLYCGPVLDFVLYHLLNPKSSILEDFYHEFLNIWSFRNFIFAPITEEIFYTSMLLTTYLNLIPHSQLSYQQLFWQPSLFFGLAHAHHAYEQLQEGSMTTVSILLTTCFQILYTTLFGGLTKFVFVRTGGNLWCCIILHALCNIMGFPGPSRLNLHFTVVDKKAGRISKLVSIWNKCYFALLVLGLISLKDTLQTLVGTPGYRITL
MT1-MMP act inh: inhibitors of human MT1-MMP activation; P50281; HT1080 RFP-PRO-GFP cells, GFP/RFP ratio fluorescence, overnight; percent of plate control window, DMSO zero; GFP/RFP ratio change, % at 20 µM; actives 0.061% (n = 360,000);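 active = GFP/RFP ratio change of at least 30% with cell ATP level not reduced by more than half and red fluorescence within 50% of control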; note: strong numbers were not always called active
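Assay system: HT1080 RFP-PRO-GFP cells. Benchmarks: DMSO vehicle wells and RFP-L50D-GFP reporter cell wells. Times: overnight cell settling, then overnight compound exposure, 37 °C, 5% CO2. Compound: 20 µM single dose, 1% DMSO. Read-out basis: GFP/RFP fluorescence ratio.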
Env fusion inh: inhibitors of HIV Env-mediated cell fusion; HeLa-JRFL Env/CEM21 cell fusion, luciferase; inhibition, % at 12.3 µM; actives 1.1% (n = 360,000);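 active = mean replicate inhibition score of at least 50 and every replicate individually at or above 50; inconclusive = only one of the two criteria met; inactive = mean below 50 and not all replicates reaching 50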;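 note: 0% = plate neutral controls and 100% = maraviroc near 300 nM; one replicate is shown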
eIF4H FP inh: inhibitors of RNA binding by human eIF4H | Q15056 | eIF4H fluorescence polarization binding assay | inhibition, % at 35 µM | actives 0.94% (n = 290,000) | AID 2012;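 active = 50% or more with normal probe brightness, or confirmed in later tests; inconclusive = above 50% with abnormal brightness, or retests that disagree; inactive = below 50% or failed in later tests; about a fifth of its hits are not listed in these tables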;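 note: calls also rest on retests at 20 µM and on dose response follow-up; 0% = protein and probe with vehicle and 100% = probe without protein; strong numbers were not always called active; many hits fall short of the cut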
Yeast UUG start: yeast start codon fidelity modulation; S. cerevisiae UUG-firefly luciferase reporter, luminescence/redox ratio; AID 602363; actives 0.13% (n = 350,000); activity score, % at 18.7 µM;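 active = replicate mean at a twofold rise or more, about +100% in these data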;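 note: firefly luciferase made from a UUG start codon reports start codon fidelity; reporter light over untreated wells divided by growth signal over untreated wells; some hits fall short of that in this replicate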
PABP polyA inh: blocks human PABP binding to poly(A) RNA; P11940; fluorescence polarization; inhibition, % at 35 µM; actives 1% (n = 290,000); AID 2014;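 active = 50% or more with normal probe brightness, or confirmed in later tests; inconclusive = above 50% with abnormal brightness, or retests that disagree; inactive = below 50% or failed in later tests; about a fifth of its hits are not listed in these tables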;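 note: calls also rest on retests at 20 µM and on dose response follow-up; controls were probe without protein and protein plus probe with vehicle; some compounds called inactive have numbers as strong as hits; many hits fall short of the cut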
CSC inhib: cancer stem cell inhibition; AID 2717; cancer stem cell-like cells viability, luminescence; inhibition, % at 7.5 µM; actives 1.1% (n = 300,000);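 active = mean at 75% or more and at least half the replicates too; inconclusive = mean and replicates disagree; tested in HMLE shEcad cells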;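 note: 0% = median of negative and 100% = median of positive control wells; the first replicate is given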
eIF4H FP inh retest: second read-out of eIF4H FP inh, no call of its own (marks repeat the call); inhibition, %; compound at 20 µM; confirmation average;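 mean of two retest wells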
PABP polyA inh retest: recorded beside PABP polyA inh, whose call it bears; inhibition, %; compound at 20 µM; confirmation repeats;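 mean of two retest wells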
MT1-MMP act inh RFP: also measured in MT1-MMP act inh; calls as there; RFP signal change, %; measured here: RFP expression control read;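 0 = vehicle wells; hits needed this value within 50% of zero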
Numbers without * were called inactive; i = inactive; ? = inconclusive; · = no result given. This is a subset; rates above refer to the full screens.

SMILES	Rce1 inhib	MT1-MMP act inh	MT1-MMP act inh RFP	Env fusion inh	eIF4H FP inh	Yeast UUG start	PABP polyA inh	CSC inhib	others
Cc1cc(NC(=O)c2ccc(S(=O)(=O)N(C)C)cc2)n(-c2ccccn2)n1	i	2	0	-110	-4	-20	-5	-2
CCN(CC(=O)NCc1cccs1)C(=O)c1ccc(NS(=O)(=O)c2ccc(F)cc2)cc1	i	0	-5	-7	·	·	·	5
COc1ccc(S(=O)(=O)N2CCCC2)cc1OC	i	0	-1	6	-2	-9	15	-7
Cc1cccc(NC(=O)CCNS(=O)(=O)c2cc(Br)cnc2N)c1C	i	-3	-2	15	-8	-6	-8	-6
C/C(=N\NC(=O)c1ccc(Cn2cc(Br)cn2)o1)c1cccc(NC(=O)C(C)C)c1	i	·	·	·	2	-5	-3	9
O=C(Nc1ccc(Cl)cc1Cl)C1=Cc2ccccc2OC1	i	-4	-2	·	-7	-28	7	-7
CN(c1ccc(C(=O)N2CCCCCC2)cc1)S(=O)(=O)c1ccc(Cl)cc1	i	-3	-19	5	7	0	5	-23
COc1ccc(Cc2nnc(N/N=C/c3ccccc3O)[nH]c2=O)cc1OC	i	-5	-13	17	14	·	11	106*
CC1CCCC(C)N1C(=O)COC(=O)Cc1ccc(F)cc1 (configuration not stated)	i	2	1	-4	-4	-4	4	-2
O=C(O)CN1C(=O)c2cccc3c(Br)ccc1c23	i	-6	-1	-9	0	-23	-1	-9
COc1ccc(S(=O)(=O)NCC2CCCN(CC(C)(C)C)C2)cc1 (configuration not stated)	i	-3	1	9	9	-20	-8	35
CC(NC(=O)OC(C)(C)C)C(=O)N1CCCC1C(=O)NC(Cc1ccccc1)C(N)=O (configuration not stated)	i	-2	2	0	-7	-9	18	·
CCN(c1ccc(OC)cc1)S(=O)(=O)c1ccc(-c2ccc(=O)[nH]n2)o1	i	3	-7	3	-7	-22	6	-2
Cc1cccc(NC(=O)CSc2nnc(CCC(=O)Nc3ccc(C)c(Cl)c3)n2C)c1	i	3	1	·	-6	·	-6	6
Cc1cccc(OCCNC(=O)c2ccc(Oc3ccc(C(F)(F)F)cc3[N+](=O)[O-])cc2)c1	i	1	-1	23	-7	-25	0	20
CCOC(=O)C(C(=O)OCC)C(CC(=O)C1CC1)c1ccccc1 (configuration not stated)	i	-1	-2	·	-2	12	-6	-5
Cn1nc(-c2ccc(Cl)cc2)c2cc(C(=O)N3CCN(C(=O)c4ccco4)CC3)sc21	i	-3	-4	-3	-8	-11	-10	-10
CCOc1cc(NC(=O)c2ccco2)c(OCC)cc1NC(=O)CCC(=O)NCc1cccnc1	·	10	-1	·	-9	-14	2	·
C/C(=N\NC=O)c1ccncc1	i	-4	-1	0	-1	·	15	·
O=C(Nc1ccc2[nH]c(=O)[nH]c2c1)C(F)(F)F	i	0	-2	-7	0	·	1	-3
COC(=O)Nc1ccc2c(c1)ncn2C1CCCCC1	i	11	1	-20	-13	-13	-5	-5
O=C(CSCC(=O)OCC(=O)N1CCN(C(=O)c2ccco2)CC1)Nc1ccc(Cl)cc1	·	3	7	11	·	17	·	·
CCN(c1ccccc1)S(=O)(=O)c1ccc(N2CCN(c3ccccc3O)CC2)nc1	·	2	-5	·	·	-2	·	5
COc1ccc(C2=Nc3ccccc3NC(=O)C2N(CCc2ccccc2)C(=O)c2cccs2)cc1 (configuration not stated)	·	1	2	-122	·	-11	·	·
CC(C)(C)C1CCC2(CC1)NC(=S)N(c1ccccc1)N2 (configuration not stated)	i	0	-1	-45	-9	-18	-10	-20

Brought forward from above: 2 compounds; new compounds follow.
SMILES	Rce1 inhib	MT1-MMP act inh	MT1-MMP act inh RFP	Env fusion inh	eIF4H FP inh	Yeast UUG start	PABP polyA inh	CSC inhib	others
COc1ccc(C2=Nc3ccccc3NC(=O)C2N(CCc2ccccc2)C(=O)c2cccs2)cc1 (configuration not stated)	·	1	2	-122	·	-11	·	·
CC(C)(C)C1CCC2(CC1)NC(=S)N(c1ccccc1)N2 (configuration not stated)	i	0	-1	-45	-9	-18	-10	-20
O=C(CCCC(=O)N(CC(=O)NC1CCCC1)Cc1ccc(F)cc1)Nc1ccccn1	i	-2	1	·	-14	-12	6	1
COC(=O)C1=C(C)N(c2cccc(C(C)=O)c2)C(=O)C1	i	-1	6	-18	5	-10	1	-7
CSc1nc(=O)n2cc(C)ccc2n1	i	-2	-1	-2	-3	·	3	-15
COc1ccc(-c2cc(C(=O)NNC(=O)c3csc(N4CCOCC4)n3)c3ccccc3n2)cc1OC	i	4	4	9	·	-9	·	0
C/C(=N\NC(=O)c1cccc(S(=O)(=O)Nc2cccc(Cl)c2)c1)c1cccs1	i	-1	-2	1	-12	-1	-2	17
CCN1C=C(C(C)=O)C(=O)CC1	·	2	8	-18	·	-14	·	·
C=CCSc1cc(C)nc2c(-c3ccccc3)c(C)nn12	i	2	-3	48	-2	-31	-3	17
O=[N+]([O-])c1ccc(-c2nn(-c3ccccc3)cc2/C=N/n2c(-c3cccs3)n[nH]c2=S)cc1	i	0	-7	5	36	-8	-8	10
CC1(C(=O)Nc2ccc3c(c2)OCCO3)CCC(=O)N1CCc1c[nH]c2ccccc12 (configuration not stated)	·	-1	2	-21	·	-12	·	·
Cc1cc(C)cc(OCC(=O)OC/C(O)=C(\C#N)c2nc3ccccc3[nH]2)c1	i	-5	5	0	-6	·	-15	6
N#C/C(=C/c1ccc(N2CCOCC2)c([N+](=O)[O-])c1)C(N)=O	i	6	4	·	62*	-23	1.5*	-9	eIF4H FP inh retest=90*;PABP polyA inh retest=53*
CC(C)N(Cc1ccccc1)S(=O)(=O)c1ccc(F)cc1	i	3	-3	19	-4	-11	0	-9
CC(=O)Nc1ccc(NC(=O)CCCN2C(=O)C(c3ccccc3)Oc3cccnc32)cc1 (configuration not stated)	·	4	3	8	·	-12	·	·
CC(=O)c1c(N2CCN(c3ccccc3)CC2)nc(=S)n(-c2ccccc2)c1C	i	-28	-2	·	?	13	?	-1
Cc1cc2ncn(CC3CC3(Cl)Cl)c2cc1C (configuration not stated)	i	1	-3	13	-4	·	-4	-15
COc1ccccc1NC(=O)N1CCN(Cc2ccc3c(c2)OCO3)CC1	i	0	2	23	0	·	7	0
CCOc1ccc(NC(=S)NCc2cccnc2)cc1	i	4	-1	1	-5	-20	8	-11
COc1ccc(N2CCN(Cc3nc(N)nc(Nc4ccccc4OC)n3)CC2)cc1	i	2	-2	-38	2	-4	-3	-13
O=c1cc(-c2ccccc2Cl)oc2c(NS(=O)(=O)c3cccc4nsnc34)ccc(O)c12	i	-2	2	-41	-4	-10	2	4
Cc1cccc(NC(=O)c2nc[nH]c2C(=O)N[C@@H](C)C(=O)OC(C)(C)C)c1	i	4	-2	-9	5	-7	-2	13
O=C(NCc1ccco1)C(=O)c1cn(CC(=O)N2CCCC2)c2ccccc12	i	4	5	-7	-5	·	-20	-12
Cc1cc(=O)n(-c2ccccc2Cl)[nH]1	i	2	2	-15	1	·	-1	-15
Cc1ccnc2c(N3C(=O)C4C5C=CC(C5)C4(C)C3=O)cccc12 (configuration not stated)	i	1	5	11	-1	1	-14	·
Cc1ccc(C(CC(=O)c2ccc(Cl)cc2)C(=O)O)cc1 (configuration not stated)	i	3	5	-4	-5	1	3	-7
Cc1ccnc(SC2CC(=O)N(c3ccc(C(C)C)cc3)C2=O)n1 (configuration not stated)	i	6	4	5	16	-28	7	-2
SMILES	Rce1 inhib	MT1-MMP act inh	MT1-MMP act inh RFP	Env fusion inh	eIF4H FP inh	Yeast UUG start	PABP polyA inh	CSC inhib	others
CCCCc1cc(=O)oc2cc(C)cc(OCC(=O)N3CCC(C(=O)O)(c4ccccc4)CC3)c12	i	1	4	·	9	-6	14	2
Cc1ccc2nc(-c3ccc(NS(=O)(=O)c4ccccc4)cc3)sc2c1	i	1	-3	-25	-4	·	1	12
O=C(Cn1c(-c2ccccc2)noc1=O)N1CCC(Cc2ccccc2)CC1	i	0	-9	4	-1	·	-6	-5
CCOC(=O)c1nnn(-c2nonc2-n2cccc2)c1CCl	i	3	2	·	-10	·	-8	-15
C/C(=N/O)c1ccc(N2C(=O)C3C4C=CC(C3C2=O)C2C3C(=O)N(c5ccc(/C(C)=N/O)cc5)C(=O)C3C42)cc1 (configuration not stated)	·	·	·	-13	-4	·	4	6
COc1ccc(N(CC(=O)NCCSCc2ccc(Cl)cc2)S(C)(=O)=O)cc1Cl	i	1	-6	121*	4	2	6	0
O=C(NCCCN1CCOCC1)c1onc(CSc2ccncc2)c1C(=O)NCCCN1CCOCC1	i	1	8	-2	·	-21	·	7
COC(=O)COc1ccc(S(=O)(=O)Nc2ccccc2SC)cc1	i	1	0	-28	0	-18	3	17
O=C(CSc1nnc(Nc2ccccc2)s1)NCc1cccs1	i	2	8	-2	-6	·	-6	10
Cc1ccc(/C=C2\C(=N)N3N=C(CC(=O)N4CCOCC4)SC3=NC2=O)o1	i	-5	6	8	10	-18	14	-11
N[C@@H](Cc1ccccc1)C(=O)N1CCC(C(=O)N[C@@H](CCC(=O)O)C(=O)O)CC1	i	-1	1	8	1	-12	3	-7
Cc1ccc(NC(=O)CCn2c(=O)[nH]c3ccsc3c2=O)cc1F	i	4	3	-9	-4	-26	2	-7
O=S(=O)(c1cccs1)N1CCN(c2ccnc3cc(Cl)ccc23)CC1	i	-19	-15	18	-2	-11	-10	·
CC1CC(C)CN(C(=O)C(Cc2ccccc2)n2cccc2)C1 (configuration not stated)	i	-5	-3	27	3	-11	4	12
O=Cc1cn(Cc2ccccc2)nc1-c1cccnc1	i	-4	1	3	-5	·	0	-1
CCOC(=O)Nc1cc(=O)c2ccccc2o1	i	0	-11	-79	4	-12	5	34
CC(=O)OCCN1C(=O)c2ccc(-c3nc4ccccc4c(=O)o3)cc2C1=O	i	4	4	-5	·	-10	·	-5
NC(CCc1ccccc1)c1csc(Nc2nccc(C(F)(F)F)n2)n1 (configuration not stated)	·	0	1	0	·	-4	·	·
COn1c(=O)c(=O)n(OC)c2ccccc21	i	-1	1	·	1	·	3	-3
CCOc1ccc2nc(NS(C)(=O)=O)sc2c1	i	0	-1	-464	-2	·	-4	-8
COc1ccccc1/C=C/c1nc(S(=O)(=O)c2ccccc2)c(NCCN(C)C)o1	i	1	1	4	-7	-15	7	-1
CCc1ccc(CNC(=O)CCc2nnc(CCc3ccc(OC)cc3)o2)nc1	i	-4	0	3	2	1	-7	-16
CCCCN(C(=S)Nc1ccccc1)C1CCS(=O)(=O)C1 (configuration not stated)	i	-1	2	·	5	·	-7	11
COc1cccc(-c2nnc(SCC(=O)NC3CCS(=O)(=O)C3)n2C)c1 (configuration not stated)	·	-4	0	-4	·	-4	·	8
O=C(CN1CCCCC1CO)c1ccc(OC(F)F)cc1 (configuration not stated)	i	·	·	11	-1	·	-2	-5
COc1cccc(C(=O)COC(=O)C2CC3CCCC(C2)C3=O)c1 (configuration not stated)	i	4	2	-11	·	-7	·	-9
O=C(CSc1ncnc2scc(-c3ccccc3)c12)N1CCN(Cc2ccc3c(c2)OCO3)CC1	i	3	17	0	4	3	0	-14
COCCN(C(=O)CCC(=O)Nc1ccccn1)C(C(=O)NC(C)C)c1ccc(C)cc1 (configuration not stated)	i	0	-1	-8	-3	-13	-5	-3
O=C(CCc1ccc(S(=O)(=O)N2CCOCC2)cc1)Nc1ccc(N2CCOCC2)cc1	i	0	4	-9	3	-2	3	-13
CCN(c1ccccc1)S(=O)(=O)c1ccc(Cl)c(NC(=O)COC(=O)C2CC2C)c1 (configuration not stated)	i	0	-1	3	-7	19	7	-10
